S aureus helic: S. aureus DNA helicase inhibition; AID 485395; purified S. aureus helicase, fluorescence unwinding assay; about half of the hits fall short of the stated cut; inhibition, %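 (tested at about 80 µM)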; 120,000 tested, 0.05% active;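 active = both duplicates at 50% or more, or one of them with a favoured structure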;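 note: 0% = mean of negative control wells and 100% = mean of positive control wells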
MgrA-DNA mod: S. aureus MgrA-DNA binding modulation | AID 602314 | fluorescence polarization | inhibition, %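 (about 10 µg/mL by stock and volumes)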 | 84,000 tested, 0.13% active;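 active = above 50% in either of two replicates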;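 note: 0% = protein plus DNA without compound and 100% = DNA alone without protein; higher means less MgrA bound to DNA so lower polarization; one replicate is shown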
* = called active by the depositor; · = no result given; & = joins results of further samples. These rows are one share of the data; count on the stated rates, not on these rows.

Every second line gives: MgrA-DNA mod, S aureus helic
- CC1(C)CC2=NN(c3ccccc3)P(=O)(OCC3CCCO3)C2=C(N2CCCCC2)C1 (configuration not stated)
→ ·, 9
- Cn1c(N)c(Br)c(-c2ccc(F)cc2)c(C#N)c1=O
→ ·, 9
- CN(c1nnc(N)s1)C1CCCCC1
→ ·, 12
- COc1ccc(Nc2cnnc3c(Cl)cccc23)cc1OC
→ ·, 36
- CCOc1ccccc1C(=O)Nc1cccc(C)c1
→ -0.8, 0
- CC/C(C)=N/N1C(=O)c2ccccc2NC1(C)CC (configuration not stated)
→ 1.6, 2
- COc1ccc(S(=O)(=O)NC2(C(=O)O)CCCCC2)cc1
→ 1.1, 3
- Cc1ccc(C(=O)OCC(=O)N2CCCC2)cc1NC(=O)c1ccco1
→ ·, 3
- CC(Sc1nnc(N)s1)C(=O)Nc1ccc(F)c(F)c1F (configuration not stated)
→ ·, 21
- NC(=O)N1c2ccccc2C=Cc2ccccc21
→ 0.5&-0.6, ·
- CN[C@@H]1[C@H](O[C@H]2[C@H](O[C@@H]3[C@@H](O)[C@H](O)[C@@H](N=C(N)N)[C@H](O)[C@H]3N=C(N)N)O[C@@H](C)[C@]2(O)C=O)O[C@@H](CO)[C@H](O)[C@H]1O
→ 5.2, ·
- COc1ccc2c(c1)C(=O)N(CCc1ccc(S(=O)(=O)NC(=O)NC3CCCCC3)cc1)C(=O)C2(C)C
→ -1.8, ·
- Cc1csc(NC(=O)c2cc[n+]([O-])cc2)n1
→ -0.9, -17
- Cc1onc(-c2c(Cl)cccc2Cl)c1C(=O)Nc1cccc(C#N)c1
→ 1.2, ·
- COc1ccc2c(c1)CCc1sc(/N=C/NO)nc1-2
→ 1.2, ·
- O=C(Nc1nccs1)c1cccc(S(=O)(=O)N2CCCCC2)c1
→ -0.6, 9
- O=C(c1sc2ccccc2c1Cl)n1ccc(-c2cccs2)n1
→ ·, -9
- Cc1ccc2nc(C)cc(Nc3ccccc3)c2c1
→ ·, 3
- O=C1CN(C(=O)C2CCC2)CCN1
→ ·, 5
- O=C1c2ccccc2C(=O)N1CCCCN(C(=O)c1sc2ccccc2c1Cl)c1ccc(F)cc1F
→ -0.7, ·
- CN(C(=O)c1ccccc1)c1nc2ccccc2s1
→ 4.0, 13
- COc1ccc(C(C#N)N2CCCCC2)cc1OC (configuration not stated)
→ ·, -24
- Cc1nc2ccccc2c(C)c1CC(=O)O
→ 1.9, -11
- O=C(Nc1ccc2c(c1)OCCO2)c1ccno1
→ -1.8, ·
- CC1=Nc2ccccc2/C1=C/c1sc(=O)n(-c2ccccc2)c1O
→ 7.0, 6
- COc1ccccc1NC(=O)CN(Cc1ccco1)C(=O)Cc1ccc(Cl)cc1
→ ·, -5
- COc1ccc(CNC(=O)c2ccc(CS(=O)c3ccc(OC)cc3)o2)cc1 (configuration not stated)
→ ·, 16
- CCCCCCOc1ccc(C2C(C#N)=C(C)NC(C)=C2C#N)cc1
→ ·, -11
- O=C(COc1ccccc1Cl)N1CCOCC1
→ -2.3, 7
- CN1C/C(=C\c2ccccc2)C(=O)/C(=C/c2ccccc2)C1
→ -10&-3.8, ·

The closing 2 compounds of the section above open the next one:
Every second line gives: MgrA-DNA mod, S aureus helic
- O=C(COc1ccccc1Cl)N1CCOCC1
→ -2.3, 7
- CN1C/C(=C\c2ccccc2)C(=O)/C(=C/c2ccccc2)C1
→ -10&-3.8, ·
- CCC(=O)N(c1nnc(SC(C)c2nc3ccccc3c(=O)[nH]2)s1)C1CC1 (configuration not stated)
→ ·, -7
- N#Cc1cnn(C(N)=S)c1N
→ 0.4, -11
- Clc1ccc(Cc2nc(-c3ccccc3)cs2)cc1
→ -0.1, ·
- CC1CC(C)CN(c2ccc(N)cc2C(=O)O)C1 (configuration not stated)
→ 0.6, ·
- COc1ccc(C2=NC(c3ccncc3)=Nc3ccc(C(C)C)cc3N2)cc1OC
→ 0.4, 1
- COc1ccccc1-c1coc2c(CN(C)C)c(O)ccc2c1=O
→ -4.1, 0
- Cc1cc(C)c(C(N)=O)c(SCC(=O)c2ccc(Cl)cc2)n1
→ ·, -17
- Nc1ccc(C23CC4CC(CC(C4)C2)C3)cc1
→ ·, -12
- O=C(NCCN1CCCCCC1)c1ccc(N2CCCC2=O)cc1
→ ·, 10
- Cc1ccc2nc(SCCC3OCCO3)nc(=O)n2c1
→ ·, 7
- COc1ccc(C2=NN3COc4ccccc4C3C2)cc1 (configuration not stated)
→ 2.0, 11
- CC(C)C(=O)Nc1c2c(nn1-c1ccc(Oc3ccccc3)cc1)CSC2
→ 0.6, 5
- O=C(Nc1cc(-c2ccccc2)[nH]n1)c1ccc(Cl)cc1
→ 0.5, ·
- C/C(=C\c1ccccc1)c1ccc2c(c1)CCN2C
→ 1.4, 9
- CSc1ccc(/C=N/N(C)S(=O)(=O)c2ccc(C)cc2)cc1
→ 1.8, 7
- NC(=O)C1CCN(C(=O)C2C3CCC(C3)C2C(=O)O)CC1 (configuration not stated)
→ 0.6, 4
- CNC(=O)c1c(O)c2ccccc2n(C)c1=O
→ 0.7, -1
- Cc1[nH]c2ccc(F)cc2c1CC(=O)O
→ -1.1, -4
- C/C(CCc1ccc2c(c1)OCO2)=N\N=C(/N)SC1CC(=O)N(c2ccccc2)C1=O (configuration not stated)
→ 1.5, 12
- CCCNC(=O)c1noc2c1CCc1cc(OC)ccc1-2
→ ·, -30
- CC(Sc1nnc(-c2cccs2)n1-c1ccccc1)C(=O)NC1(C#N)CCCCC1 (configuration not stated)
→ ·, 3
- O=C(C1CCC1)N1CCc2cc(S(=O)(=O)NCCCN3CCN(Cc4ccccc4)CC3)ccc21
→ ·, -31
- O=C(NCc1ccc2c(c1)OCO2)c1ccc(S(=O)(=O)N2CCCC2)cc1
→ -1.2, 20
- Cc1ccccc1C(=O)Nc1scc(CC(C)C)c1C(=O)O
→ -0.1, 8
- CC(C)CNS(=O)(=O)c1ccccc1
→ -3.4, 5
- COc1ccc(NC(=O)CCCC(=O)O)c(OC)c1
→ ·, -18
- C=CCn1c(=O)c(C(=O)Nc2cccc(O)c2)c(O)c2ccccc21
→ 1.0, 4
- Cc1[nH]c2ccccc2c1C(=O)COc1ncnc2ccccc12
→ -5.7, 2
- COc1ccc(CCNC2CC(=O)N(C)C2=O)cc1OC (configuration not stated)
→ ·, 11
- O=c1[nH]nc(SCc2cccc3nsnc23)n1-c1ccccc1
→ 1.7, -2

(continued)
Every second line gives: MgrA-DNA mod, S aureus helic
- N#Cc1cccnc1NNC(=O)c1ccccc1C(=O)O
→ ·, 21
- C/C(=N\OCc1nc2c3c4c(sc3ncn2n1)CCCC4)c1cccs1
→ ·, 32
- Cc1cc(N2CCc3ccccc32)n2ncnc2n1
→ ·, 19
- COc1ccc2c(c1)C(SCC(=O)NC1CC1)CC(C)(C)O2 (configuration not stated)
→ ·, -4
- O=C(Cn1nnc(-c2ccccc2)n1)OCc1ccccc1
→ ·, -8
- CC(OC(=O)C1=NNC(=O)CC1)C(=O)Nc1nc(-c2ccccc2)cs1 (configuration not stated)
→ ·, 10
- COc1cc(C(CC(=O)O)CC(=O)N2CCC(n3cccc3)CC2)cc(OC)c1OC (configuration not stated)
→ 0.4, ·
- S=C1NCN(Cc2ccccc2)CN1Cc1ccccc1
→ 1.2, -2
- O=C(NCCc1cn2ccccc2n1)c1ccccc1F
→ ·, -3
- CC1=CCC2C(=O)N(c3ccc(C(=O)N4CCCCCC4)cc3)C(=O)C2C1 (configuration not stated)
→ ·, -4
- O=C(O)C1CCN(c2c(-c3ccccc3)c3cc(Cl)ccc3[nH]c2=O)CC1
→ ·, -8
- OCCN1CCN(C(=S)c2ccccc2O)CC1
→ 5.5, 21
- CC1CCN(CC(=O)Nc2sc3c(c2C#N)CCCC3)CC1
→ -2.1, 12
- CSc1nc2ccc(NC(=O)/C=C/c3ccc(C)o3)cc2s1
→ ·, -11
- CC(C(=O)O)C1SC(=O)NC1=O (configuration not stated)
→ ·, 16
- O=C(CSc1ccc2c(c1)CCC2)N(Cc1nnc(-c2ccc(Cl)cc2)o1)C1CC1
→ ·, 2
- CCCCCSc1nnc2c(n1)OC(CC)N(C(C)=O)c1ccccc1-2 (configuration not stated)
→ ·, 3
- COc1cccc(NC(=O)C(NCCO)c2ccccc2)c1 (configuration not stated)
→ ·, 0
- CC1(CC(=O)N/N=C/c2ccc(C#N)cc2)OCCO1
→ ·, -18
- CC(C)(C)c1ccc(C(=O)COc2ccc(-c3nnco3)cc2)cc1
→ ·, -13
- CC1CCCCN1CCNC(=O)CN1C(=O)CCSc2ccccc21 (configuration not stated)
→ ·, -11
- Brc1ccc2nc3c(n2c1)CCCC3
→ -1.3, 15
- O=C(C1=COCCO1)N1CCN(c2nc3ccccc3s2)CC1
→ ·, 8
- CCCCC(=O)Nc1nc(-c2ccccc2)cs1
→ ·, 23
- Cc1ccn(CC(C)C(=O)O)n1 (configuration not stated)
→ 0.6, 1
- CN(C)N1C(N)=C(C#N)C(c2ccccc2)C2=C1CCCC2=O (configuration not stated)
→ 0.8, 5
- O=C(O)C1CCCN(S(=O)(=O)c2ccccc2)C1 (configuration not stated)
→ -0.2, 7
- COc1cccc(C(=O)NC(C)C(c2cccs2)N2CCOCC2)c1 (configuration not stated)
→ ·, 16
- COC(=O)c1sccc1OC(=O)c1nn(-c2ccccc2)nc1C
→ 0.7, ·
- CCOC(=O)c1ccc(C[N+]2(C)CCOCC2)o1
→ -1.9, 14

Structural class, the compounds so far with two or more sulfur atoms (9)
Every second line gives: MgrA-DNA mod, S aureus helic
- CC(Sc1nnc(N)s1)C(=O)Nc1ccc(F)c(F)c1F (configuration not stated)
→ ·, 21
- O=C(Nc1nccs1)c1cccc(S(=O)(=O)N2CCCCC2)c1
→ -0.6, 9
- O=C(c1sc2ccccc2c1Cl)n1ccc(-c2cccs2)n1
→ ·, -9
- CCC(=O)N(c1nnc(SC(C)c2nc3ccccc3c(=O)[nH]2)s1)C1CC1 (configuration not stated)
→ ·, -7
- CSc1ccc(/C=N/N(C)S(=O)(=O)c2ccc(C)cc2)cc1
→ 1.8, 7
- CC(Sc1nnc(-c2cccs2)n1-c1ccccc1)C(=O)NC1(C#N)CCCCC1 (configuration not stated)
→ ·, 3
- O=c1[nH]nc(SCc2cccc3nsnc23)n1-c1ccccc1
→ 1.7, -2
- C/C(=N\OCc1nc2c3c4c(sc3ncn2n1)CCCC4)c1cccs1
→ ·, 32
- CSc1nc2ccc(NC(=O)/C=C/c3ccc(C)o3)cc2s1
→ ·, -11

New compounds follow:
Every second line gives: MgrA-DNA mod, S aureus helic
- CCOC(=O)C(Cc1ccccc1)C(=O)Nc1ccc(OC)cc1 (configuration not stated)
→ 0.1, 5
- CSc1nc(NCCCO)c(C#N)c(-c2ccccc2)n1
→ ·, -23
- CCSc1ccc2c3c(cccc13)C(=O)N(Cc1ccccc1)C2=O
→ 0.2, ·
- O=C(/C=C/c1cccs1)N1CCN(C(=O)/C=C/c2cccs2)CC1
→ 0.8, -14
- Cc1c(Sc2ccc(Cl)cc2)cnn1CCC#N
→ 2.8, ·
- O=C(Nc1nccs1)c1ccc(F)cc1
→ 0.9, -20
- CCCc1ccc(OCc2ccc(C(=O)NCc3cccnc3)o2)c(OC)c1
→ -1.4, 5
- COc1cc([N+](=O)[O-])ccc1N1C(=O)C2C3C=CC(CC3)C2C1=O (configuration not stated)
→ -1.4, ·
- O=C(Nc1nc2c(s1)CCc1ccccc1-2)c1ccc([N+](=O)[O-])cc1
→ 3.2, ·
- C/C(N)=C(/C#N)C(=O)COc1ccccc1F
→ ·, -13
- COc1ccc(S(N)(=O)=O)cc1C(=O)OCc1cn2cc(Cl)ccc2n1
→ ·, 12
- CCCCNC(=O)c1cc(S(=O)(=O)N(C)C)oc1C
→ ·, -21
- O=c1[nH]c2ccc(NC(=S)Nc3ccccc3)cc2[nH]1
→ 2.5, -1
- O=C(CSc1nnc(-c2ccncc2)n1-c1ccccc1)NC(=O)NC1CCCC1
→ ·, 14
- Cc1ccc(-c2cc(N)n(-c3ccccc3)n2)cc1
→ -0.6, -6
- COc1ccc(N2CCN(CCNc3ncnc4onc(C)c34)CC2)cc1
→ ·, -17
- N#Cc1ccc(Cl)cc1N=Cc1ccc2ncccc2c1
→ 1.6, -20
- CCCCSC1=C(C#N)C(=O)NC(CO)S1 (configuration not stated)
→ ·, -16
- CCN(CC)S(=O)(=O)c1ccc2c(c1)nc(CCC(=O)OCCOc1ccc(C)cc1)n2C
→ ·, -4
- NC(=O)CSc1c(-c2ccccc2)[nH]c2ccccc12
→ ·, 14
- Cc1csc(NC(=O)C(C)(C)Br)n1
→ -0.2, 21
- CCC(=O)N1C(c2ccccc2)=C(C)Sc2nnc(C)n21
→ ·, 5
- CCC(O)(c1ccccc1)C(CN1CCOCC1)c1ccccc1 (configuration not stated)
→ ·, 4
- O=C(Nc1ccc(Oc2ccccc2)cc1)c1ccccn1
→ ·, 6
- CC1Oc2ccccc2OC1=O (configuration not stated)
→ ·, 1
- CSc1ccc(NC(=O)C(C)N2CCN(C)CC2)cc1 (configuration not stated)
→ -3.4, 14
- CCCN1CCN(C(=S)Nc2ccc(S(N)(=O)=O)cc2)CC1
→ 0.2, 7
- Cc1ccc2oc(-c3ccc4c(c3)C(=O)N(C)C4=O)nc2c1
→ 5.2, 13
- Cc1ccccc1CCN(Cc1cc2c(C)ccc(C)c2[nH]c1=O)C(=O)c1cnccn1
→ -1.7, 4
- O=CN1CCN(S(=O)(=O)c2ccc(S(=O)(=O)NC3CC3)cc2)CC1
→ 0.8, 6
- Cc1ccc(Cc2c(C)nc3c(C(=O)O)cnn3c2C)cc1
→ ·, 13
